Source: PubChem BioAssay (National Center for Advancing Translational Sciences (NCATS))
MARV entry inh – Marburg virus entry inhibition. Marburg virus pseudotyped entry inhibition, cell reporter; control for the full effect not named in the record; about a third of the inactives were read at about 46 µM. Potency, µM (titrated, usually from 37.8 µM), for the others: top-dose activity change, negative = inhibition, actives largely listed as inhibitors. actives 1.8% (n = 300,000); active = well fitted inhibition curve with a large enough effect; inconclusive = small, poorly fitted or top-dose-only effect, or effect the other way; inactive = flat fitted curve, though single readings scatter; tested in HEK293 cells; about a fifth of its hits are not listed in these tables; note: % is set by controls: 0 for no effect and ±100 for the full control effect; luciferase read-out
StopGo reporter – FMDV 2A StopGo reporter, luciferase signal; human cells with a luciferase reporter of 2A StopGo recoding; control for the full effect not named in the record; Potency, µM (titrated, usually from 57.9 µM), for the others: at the top dose signal change, negative = less light; actives 1.2% (n = 410,000); AID 1159524; active = well fitted falling curve with a large enough effect; inconclusive = small, poorly fitted or top-dose-only effect; inactive = no such curve, though single readings can be large or run the other way; tested in HEK293T cells; note: % is set by controls: 0 for no effect and ±100 for the full control effect; nearly all actives have a fitted effect of over 45% in size; luciferase light after 4 h
NS1 function inh – inhibitors of influenza NS1 protein function; S. cerevisiae slowed by influenza A NS1, growth recovery by OD600; Potency, µM (titrated, usually from 46.1 µM), for inactives: top-dose activity, positive = more growth; actives 0.4% (n = 270,000); AID 2326; note: actives are rising curves; nearly all actives have a fitted effect of over 50% in size
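S. cerevisiae expressing influenza A NS1, grown in glucose, washed, then diluted 1:100 into pH 6.0 -URA galactose medium with 23 nl compound. Growth recovery read as OD600; NS1-free strain serves as control.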
SARS PLP yeast – SARS-CoV PLP inhibition in yeast. S. cerevisiae expressing SARS-CoV PLpro, growth rescue; control for the full effect not named in the record. Potency, µM (titrated, usually from 32.9 µM), for the others: top-dose activity, positive = growth rescue. actives 0.19% (n = 330,000); note: 0% is about no effect; nearly all actives have a fitted effect of over 55% in size; growth read by luminescence after 48 h
Cruzain Triton – cruzain (T. cruzi) inhibition with detergent. P25779. Potency, µM, without a hit: max response, negative = inhibition, hits mostly inhibitors. purified cruzain, Z-FR-AMC fluorescence, 0.01% Triton. actives 0.43% (n = 200,000); active = well fitted curve in the direction sought with a large enough effect; inconclusive = small, poorly fitted or top-dose-only effect, or another doubt; inactive = no such curve, though single readings can be large; an effect the other way counts as inactive or inconclusive;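 note: plate controls were neutral wells for no effect and buffer without enzyme for full effect; nearly all actives have a fitted effect of over 40% in size; top concentration of the series not given in the record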
Target sequence (P25779 123-467 limits assumed): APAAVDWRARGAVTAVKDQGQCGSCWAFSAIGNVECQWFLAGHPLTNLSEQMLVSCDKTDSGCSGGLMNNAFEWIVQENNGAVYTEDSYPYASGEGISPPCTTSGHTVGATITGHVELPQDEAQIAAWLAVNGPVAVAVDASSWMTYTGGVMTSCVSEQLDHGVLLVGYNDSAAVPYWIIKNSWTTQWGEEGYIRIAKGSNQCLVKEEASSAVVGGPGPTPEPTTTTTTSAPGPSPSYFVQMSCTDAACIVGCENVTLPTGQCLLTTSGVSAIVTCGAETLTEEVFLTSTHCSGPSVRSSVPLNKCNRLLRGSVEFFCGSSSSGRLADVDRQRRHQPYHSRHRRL
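Detergent-containing run (0.01% Triton X-100) in acetate buffer pH 5.5 with 5 mM DTT: enzyme at 1.5 nM final, 15 min compound preincubation at room temperature, then 2 uM Z-FR-AMC substrate. Activity taken as 60 s fluorescence increase at 360/450 nm.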
RE007 growth inh – less growth of the S. pombe RE007 Vpr strain | S. pombe RE007 Vpr strain, BacTiter-Glo ATP luminescence, 24 h; control for the full effect not named in the record | AID 651644 | Potency, µM (titrated, usually from 92.2 µM), for the others: at the highest dose activity change, negative = less growth | actives 0.21% (n = 360,000); active = well fitted falling curve with a large enough effect; inconclusive = small, poorly fitted or top-dose-only effect; inactive = no such curve, though single readings can be large or run the other way;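 note: % is set by controls: 0 for no effect and ±100 for the full control effect; nearly all actives have a fitted effect of over 50% in size; the assay follows cell death caused by Vpr and the record does not say whether a fall means rescue or toxicity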
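Fission yeast RE007 carrying one integrated HIV-1 vpr copy, seeded at OD 0.01 in PMG+AL medium with 23 nL pinned compound. Grown 24 h at 30 degrees; viability read by BacTiter-Glo luminescence after 5 min.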
LASV entry inh – Lassa virus entry inhibition; Lassa virus pseudotype entry inhibition, cell reporter; control for the full effect not named in the record; AID 540256; actives 1.2% (n = 300,000); Potency, µM (doses to about 37.9 µM), without a hit: at the top dose activity change, negative = inhibition, usual class: inhibitors; active means well fitted inhibition curve with a large enough effect; inconclusive means small, poorly fitted or top-dose-only effect, or effect the other way; inactive means flat fitted curve, though single readings scatter; tested in HEK293 cells; note: % is set by controls: 0 for no effect and ±100 for the full control effect; nearly all actives have a fitted effect of over 50% in size; luciferase read-out
Cruzain noTriton – cruzain (T. cruzi) inhibition without detergent | P25779 | purified cruzain, Z-FR-AMC fluorescence, no detergent | Potency, µM, inactives show max response, negative = inhibition, hits mostly inhibitors | actives 2.3% (n = 200,000); active = well fitted curve in the direction sought with a large enough effect; inconclusive = small, poorly fitted or top-dose-only effect, or another doubt; inactive = no such curve, though single readings can be large; an effect the other way counts as inactive or inconclusive;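 note: plate controls were enzyme without inhibitor for no effect and buffer without enzyme for full effect; nearly all actives have a fitted effect of over 40% in size; top concentration of the series not given in the record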
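Purified cruzain at 1.5 nM, pre-incubated 15 min with compound at room temperature in 100 mM sodium acetate pH 5.5, 5 mM DTT, 0.00005% Triton X-100. Reaction started with 2 uM Z-FR-AMC; AMC fluorescence increase over 60 s gives rate.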
The depositor's hits bear a star; ? = inconclusive; . = no result given; & = joins results of further samples; [ ] = another dose, or the depositor's remark. Unless noted, calls come from the whole dose curve; as a rule, active means well fitted rising curve with a large enough effect; inconclusive means small, poorly fitted or top-dose-only effect; inactive means no such curve, though single readings can be large or run the other way. Potency is the fitted concentration of half-maximal effect.

SMILES	MARV entry inh	StopGo reporter	NS1 function inh	SARS PLP yeast	Cruzain Triton	RE007 growth inh	LASV entry inh	Cruzain noTriton
COc1cccc(OC)c1C(=O)NC(C)CCc1ccccc1 (stereo unspecified)	0%[46.1 µM]	-10%	-146%	-20%	.	-3%	3%[46.1 µM]	.
O=C(Cn1cc2c(n1)CCCC2)NCc1cccs1	-2%	18%	-10%	17%	-3.5%	-8%	.	5%
O=C(O)COCC(=O)Nc1cc(C(F)(F)F)cc(C(F)(F)F)c1	.	-7%	-2%	1%	.	9%	.	.
CN(CC(=O)Nc1ccc(N2CCOCC2)cc1)CC(=O)Nc1ccc(Cl)cc1[N+](=O)[O-]	5%	-16%	0%	-17%	-4.5%	6%	1%	?
COCCCNC(=O)CSc1nc2cc3c(cc2c(=O)n1CCCC(=O)NCc1ccc(OC)cc1)OCO3	-10%&-10%[46.1 µM]	-4%&-2%	.	0%	-6.7%	1%	-9%	-2%
CC(C)c1ccc(NC(=O)C2CC(=O)N(C(C)C)C2)cc1 (stereo unspecified)	?	24%	5%	0%	-5.0%	5%	?	5%
CCN1C2OC3OC4C(OC3OC2N(CC)S1(=O)=O)N(CC)S(=O)(=O)N4CC (stereo unspecified)	.	1%	0%	1%	.	-11%	.	.
COc1cc(N=c2ssnc2Cl)cc(OC)c1	7%	40µM*	-31%	-20%	-12%	?	-6%	16µM*
O=C(COc1ccc2c(-c3ccccc3)cc(=O)oc2c1)Nc1cccnc1	.	?	1%	-2%	.	12%	.	.
COc1ccc(CNC(=O)C(c2ccco2)N(C(=O)c2snc(C(N)=O)c2N)c2cccc(OC)c2)cc1 (stereo unspecified)	?	2%	-4%	-11%	.	4%	?	.
CCOc1ccc(NC(=O)C(NS(=O)(=O)c2ccc3c(c2)CCN3C(C)=O)C(C)C)cc1 (stereo unspecified)	-10%[46.1 µM]	-4%	.	.	-2.0%	.	18%[46.1 µM]	5%
CCOc1ccc(/C=C(\C(=O)O)c2ccc(S(=O)(=O)N3CCCCC3)s2)cc1OC	-1%	-9%	.	0%	.	2%	-7%	.
On1onc2c3cc(-c4ccccc4)nc3ccc21	?	24%	-92%	-12%	-14%	-8%	?	-5%
O=C(O)c1ccccc1/C=N/Nc1ccc(S(=O)(=O)N2CCOCC2)cc1[N+](=O)[O-]	.	-1%	6%	0%	.	14%	.	.
COc1ccccc1CNC(=O)c1nnc(Cc2ccc(Cl)cc2)o1	18%	-7%	-38%	-9%	-1.8%	-8%	-23%	6%
COc1ccc(NC(=O)CCNS(=O)(=O)c2cccc3nsnc23)cc1	14%&14%[46.1 µM]	8%&-4%	.	1%	0.4%	7%	-8%&18%[46.1 µM]	-9%
CCOC(=O)C1CCN(C(=O)CSc2n[nH]c(=O)[nH]c2=O)CC1	?	-26%	-7%	-2%	-4.2%	11%	-7%	-6%
COc1cc(CNc2ccc(N3CCOCC3)c(C(=O)O)c2)ccc1OCC(N)=O	?	25%	3%	-2%	-2.4%	1%	-3%	-3%
CN(Cc1ccccc1)c1ccc(C(=O)O)cc1[N+](=O)[O-]	5%	0%	-9%	-22%	-3.4%	-22%	11%	-5%
CCC1CCCCN1S(=O)(=O)c1ccc(C(=O)Nc2nnc(C3=COCCO3)o2)cc1 (stereo unspecified)	?	-9%	-23%	?	.	6%	?	.
CC1CC(=O)N(c2ccc(NCc3ccc(Cl)cc3)c([N+](=O)[O-])c2)C1=O (stereo unspecified)	-1%	-16%	12%	1%	-6.8%	10%	-11%	0%
O=C1NN(c2ccccc2)C(=O)/C1=C/c1ccc(-c2cccc(C(=O)O)c2)o1	?	31%[activator]	4%	1%	.	9%	16%[46.1 µM]	.
CCCOc1ccc(C(=O)N/N=C/c2ccc(-c3ccc(S(=O)(=O)Nc4ncccn4)cc3)o2)cc1	0%	-7%	29%	-10%	-7.5%	12%	0%	11%
NC(=O)c1ccsc1NC(=O)CSc1nnc(C2CC2)n1Cc1ccccc1	12%[46.1 µM]	-28%	1%	-1%	2.0%	-7%	4%	6%
CCOc1cc(C2c3c(oc4cc(C)cc(C)c4c3=O)C(=O)N2CCO)ccc1O (stereo unspecified)	1%[46.1 µM]	-15%	.	.	-3.7%	.	-13%[46.1 µM]	7%
Continued:
SMILES	MARV entry inh	StopGo reporter	NS1 function inh	SARS PLP yeast	Cruzain Triton	RE007 growth inh	LASV entry inh	Cruzain noTriton
O=C([C@@H]1Cc2ccccc2CN1)N1CCN(Cc2ccccc2)CC1	.	-5%	1%	1%	.	9%	.	.
CCOC(=O)Cc1csc(SCC(=O)Nc2cccc(C#N)c2)n1	2%	-17%	-12%	-3%	0.8%	19%	5%	2%
COC1=C(Nc2ccc(OC)cc2)C(=O)C(OC)=C(Nc2ccc(OC)cc2)C1=O	4%	-22%	.	.	.	-9%	9%	.
CC(=Nc1ccccc1)C1=C(O)CC(C)(C)CC1=O	-11%[46.1 µM]	36%[activator]	.	12%	.	5%	-2%	.
COc1ccc(CCNC(=O)c2coc3ccccc3c2=O)cc1OC	-14%	18%	6%	0%	.	-5%	?	.
COC(=O)c1cc(-c2ccccc2)sc1N	?	33%[activator]	-11%	-17%	-13%	-23%	?	-2%
CC(C)Oc1ccc(-c2cc(=O)[nH]c(=O)[nH]2)cc1	?	-8%	0%	1%	2.2%	0%	27%	-8%
O=C(COc1ccccc1[N+](=O)[O-])Nc1cccc(-c2nc3ccccc3s2)c1	9%[46.1 µM]	19%	.	.	-3.7%	.	-3%[46.1 µM]	-26%
O=S(=O)(NCc1csc(-c2cccs2)n1)c1ccccc1	15%[46.1 µM]	29%	-6%	-1%	.	17%	-1%	.
O=C(CCc1ccccc1)NNC(=O)C1CCCCC1	11%	42%[activator]	-3%	-1%	7.2%	5%	-3%	-6%
COc1ccc(C(=O)Nc2cnn(Cc3ccc(Cl)cc3)c2)cc1OC	-18%	-12%	-10%	5%	-6.8%	6%	9%	10%
CCNC(=S)Nc1nc2c(cc1C(=O)OCC)CCCC2	7%	-11%	?	3%	0.0%	6%	1%	?
Cc1ccc(Oc2ncccc2/C=N/OCc2ccc(Cl)cc2Cl)cc1	-23%	-24%	9%	-4%	0.8%	-7%	-19%	?
Cc1nn(-c2nnc(NC3CCCCC3)nn2)c(C)c1Br	3.5µM*	11%	-22%	-19%	-5.5%	-29%	?	-5%
COc1ccc(Br)cc1/C=N/N1CCN(Cc2ccccc2Cl)CC1	-13%	-23%	-2%	0%	.	-3%	-2%	.
Cc1ccc(C(c2nnnn2CCc2ccccc2)N2CCSCC2)cc1 (stereo unspecified)	2.2µM*	19%	-14%	-1%	5.3%	2%	?	-1%
O=c1ccnc(Sc2ncccc2[N+](=O)[O-])[nH]1	12%[46.1 µM]	-6%	-3%	26%	-3.8%	-10%	0%	2%
O=C(CCc1nc2ccccc2c(=O)[nH]1)NNC(=O)COc1ccc(Br)cc1	5%	-16%	.	-3%	.	-13%	9%	.
C=CCn1c(COC)nnc1SCC(=O)c1ccc(F)cc1	-6%	20%	8%	-2%	3.7%	-11%	4%	-1%
CCOc1ccc(NC(=O)CN2CCN(CC(=O)Nc3ccc(N(CC)CC)cc3)CC2)cc1	.	-21%	.	.	-1.0%	.	-1%[46.1 µM]	-13%
Cc1cc2cc(CCNS(=O)(=O)c3ccc(Br)cc3)c(=O)[nH]c2cc1C	1%[46.1 µM]	-30%	.	.	-7.6%	.	-21%[46.1 µM]	1%
CCOc1ccc(NC(=O)c2cccnc2C(=O)O)cc1	1%	0%	4.5µM*	6%	2.7%	3%	2%	0%
CCOc1ccccc1NC(=O)NCc1ccc2c(c1)CCN2C(=O)c1ccccc1	.	0%	.	.	1.6%	.	?	-10%
O=C(Nc1cccc(S(=O)(=O)Nc2ccc(Cl)cc2)c1)c1ccc(Cl)nc1	?	-25%	8%	-3%	-13%	11%	?	6%
CCOc1ccc(NC(=O)CC2C(=O)N(c3ccc(F)cc3)C(=O)N2Cc2ccc(OC)c(OC)c2)cc1 (stereo unspecified)	-23%[46.1 µM]	-9%	.	.	5.5%	.	-13%[46.1 µM]	?
(continued)
SMILES	MARV entry inh	StopGo reporter	NS1 function inh	SARS PLP yeast	Cruzain Triton	RE007 growth inh	LASV entry inh	Cruzain noTriton
CCOc1ccc(-c2c(=O)n(OCC)c3ccccc3[n+]2[O-])cc1	.	14%	-3%	-1%	.	1%	.	.
COCCN(C(=O)C1CC1)c1nnc(-c2cccc(C)c2)s1	22%[46.1 µM]	52%[activator]	-31%	5%	-3.4%	-15%	3%	?
O=C1CN(c2nc(-c3ccccc3)c3ccccc3n2)c2ccccc2N1	10%	-26%	8%	16%	-3.4%	-4%	0%	-5%
COc1ccc(C(=O)Oc2ccc3c(C)cc(=O)oc3c2C(C)=O)cc1	-2%	0%	13%	2%	-1.9%	-12%	21%	2%
COc1cccc(NCc2nnc3n2CCCCC3)c1	.	23%	.	.	0.8%	.	?	7%
Cc1ccc(NC(=O)Cn2c(=O)c(C(F)(F)F)nc3ccccc32)cc1C	.	-24%	.	.	2.2%	.	13%[46.1 µM]	-3%
Cc1cccc(C)c1OCC(O)CN1CCN(c2ccccn2)CC1 (stereo unspecified)	?	2%	.	-3%	.	-18%	5%	.
CCOC(=O)C1=C(COC(=O)[C@@H](NC(=O)c2cccc(C)c2)C(C)C)NC(=O)NC1C (stereo partly specified)	-20%	-9%	.	1%	.	2%	-8%	.
O=C(C1CCCN(S(=O)(=O)c2cccc3nsnc23)C1)N1CCN(c2ccccc2F)CC1 (stereo unspecified)	-7%[46.1 µM]	-10%	.	.	-3.6%	.	-20%[46.1 µM]	10%
Oc1ccc(/C=N/n2c(-c3ccccc3)n[nH]c2=S)cc1Br	.	12%	10%	-7%	.	0%	.	.
COc1ccc(C2CC(c3ccccc3)=NN2C(=O)CSc2ncn[nH]2)cc1 (stereo unspecified)	-1%[46.1 µM]	-2%	.	-1%	.	-2%	10%[46.1 µM]	.
COc1ccccc1NC(=O)C(=O)NCCCN1CCCC1=O	?	52%[activator]	.	5%	.	2%	?	.
